From PubChem BioAssay
HSV augment = HSV replication enhancement; HSV replication augmentation in cells, fold increase; maximum fold increase; hit rate 0.005% among 220,000; AID 1956;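 active = peak rise of 1.5-fold or more in the series; tested in PC3 cells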;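 also: first round at 10 µM; read as green reporter fluorescence; hits show the peak of a series up to 25 µM; 1 = signal of infected wells without compound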
RGS16-Gao HTS = RGS16-Galphao interaction regulator (human); bead-based flow cytometry RGS16-Galphao binding, fluorescence; actives lie on both sides; binding response (% of control), % at 10 µM; hit rate 0.38% among 220,000; AID 1441;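 active = below 25% or above 175%, edge rows of some plates excepted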;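 also: Galphao activated by GDP with aluminum fluoride before binding; 100% = wells without compound and 0% = beads without RGS; some results beyond the cut were filed as inactive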
Target sequence (O15492 whole entry, looked up): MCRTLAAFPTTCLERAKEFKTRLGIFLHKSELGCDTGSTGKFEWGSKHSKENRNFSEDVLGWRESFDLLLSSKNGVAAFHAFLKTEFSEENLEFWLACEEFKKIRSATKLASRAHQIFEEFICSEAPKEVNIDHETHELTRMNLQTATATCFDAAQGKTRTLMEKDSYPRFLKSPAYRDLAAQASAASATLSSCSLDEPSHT
Target sequence (P09471 whole entry, looked up): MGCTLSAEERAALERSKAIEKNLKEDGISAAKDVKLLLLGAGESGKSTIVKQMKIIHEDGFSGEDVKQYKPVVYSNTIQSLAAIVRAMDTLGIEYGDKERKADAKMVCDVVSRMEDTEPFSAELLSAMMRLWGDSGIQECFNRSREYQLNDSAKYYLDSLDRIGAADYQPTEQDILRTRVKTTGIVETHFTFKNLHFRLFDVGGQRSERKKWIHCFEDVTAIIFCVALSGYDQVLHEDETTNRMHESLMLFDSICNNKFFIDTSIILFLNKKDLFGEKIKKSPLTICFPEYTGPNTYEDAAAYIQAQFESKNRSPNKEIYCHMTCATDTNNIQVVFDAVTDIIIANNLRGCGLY
GALR2 agonist = GALR2 (human) receptor agonism | O43603 | GALR2-expressing cells, agonist activation read-out | activation, %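 (tested at 5 µM)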 | hit rate 0.48% among 140,000 | AID 803;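 active = above mean plus 3 SD of all compounds, about 5% in these data, not always enough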;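 also: 0% = vehicle buffer wells and 100% = reference agonist at full effect; tested in CHO reporter cells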
Target sequence (O43603 whole entry, looked up): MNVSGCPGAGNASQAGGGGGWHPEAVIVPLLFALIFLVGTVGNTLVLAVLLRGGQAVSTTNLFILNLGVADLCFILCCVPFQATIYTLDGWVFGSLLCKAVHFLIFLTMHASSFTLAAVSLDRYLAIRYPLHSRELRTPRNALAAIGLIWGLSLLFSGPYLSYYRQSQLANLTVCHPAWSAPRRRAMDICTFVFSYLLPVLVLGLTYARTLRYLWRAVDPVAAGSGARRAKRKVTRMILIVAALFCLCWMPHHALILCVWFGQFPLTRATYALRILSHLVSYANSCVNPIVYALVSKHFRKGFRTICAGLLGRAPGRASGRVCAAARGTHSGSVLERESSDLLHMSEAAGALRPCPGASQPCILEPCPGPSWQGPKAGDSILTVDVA
PKD1 kinase inh = inhibitors of human PKD1 kinase; Q15139; PKD1 kinase fluorescence polarization assay; inhibition, %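 (about 10 µM by stock and volumes)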; hit rate 0.056% among 200,000;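 active = inhibition of 50% or more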;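 also: controls were vehicle for no effect and a reference inhibitor for full effect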
INS promoter inh = TRM-6 insulin promoter activity inhibition | TRM-6 cells (human fetal islet line), insulin promoter-eGFP reporter, imaging; reporter expression induced with tamoxifen | inhibition, % at 2 µM | hit rate 0.9% among 130,000;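 active = inhibition above the mean plus 3 SD, with well images judged a real hit on visual review, cut at about 60% in these data, passing the limit was not always enough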
INS promoter inh cell count = recorded beside INS promoter inh, whose call it bears; normalized cell count, %; measured here: cell count, toxicity; reference of the scale not given here;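 cells exposed to compound for 48 h; stained nuclei by imaging scaled within each plate; lower means fewer cells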
HSV augment primary fold = second read-out of HSV augment, no call of its own (marks repeat the call); fold increase; compound at 10 µM; measured here: primary screen fold increase 10 uM; tested in PC3 cells;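 GFP signal in the first replicate; 1 = infected wells without compound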
* = called active by the depositor; i = inactive; · = no result given.

Sample of the layout:
SMILES	HSV augment	HSV augment primary fold	RGS16-Gao HTS	GALR2 agonist	PKD1 kinase inh	INS promoter inh	INS promoter inh cell count
CCOc1ccc(-c2nnc3sc(-c4ccccc4OC)nn23)cc1	·	·	·	-1.7	-3	-52	41
O=C(O)CCn1cc(/C=C2\SC(=S)NC2=O)c(-c2ccccc2)n1	i	1.1	101	·	-4	·	·

Results, from the first entry:
SMILES	HSV augment	HSV augment primary fold	RGS16-Gao HTS	GALR2 agonist	PKD1 kinase inh	INS promoter inh	INS promoter inh cell count
CCOc1ccc(-c2nnc3sc(-c4ccccc4OC)nn23)cc1	·	·	·	-1.7	-3	-52	41
O=C(O)CCn1cc(/C=C2\SC(=S)NC2=O)c(-c2ccccc2)n1	i	1.1	101	·	-4	·	·
CS(=O)(=O)Nc1cccc(C2=NN(S(=O)(=O)c3ccccc3)C(c3cccs3)C2)c1 (centres undefined)	i	0.78	103	-0.5	14	·	·
Cc1cc(C)n(CC(=O)n2c3ccccc3c3ccccc32)n1	i	0.94	7	1.7	-10	4	119
COC(=O)c1cc(=O)n(C2CC2)c(=NC2CC2)s1	i	0.84	89	0.7	4	36	65
CCCCNC(=O)c1ccc(CS(=O)(=O)c2ccc(OC)cc2)o1	i	0.82	95	-3.8	9	·	·
CC1CCCCN1c1nc2nonc2nc1N1CCCCC1C (centres undefined)	i	0.84	60	-2.5	9	-52	62
CCOC(=O)/C(C#N)=C/Nc1cc(F)ccc1C	i	0.98	100	·	·	·	·
CC1CCCCN1S(=O)(=O)c1ccccc1[N+](=O)[O-] (centres undefined)	i	1	106	-1.3	-4	17	140
COc1ccc2cc(CCNC(=O)c3ccc(Br)o3)c(=O)[nH]c2c1	i	0.72	107	-1.6	-15	·	·
Cc1cc(NC(=O)c2cccc(S(=O)(=O)N3CCOCC3)c2)c2ccccc2n1	i	1	121	-0.1	1	19	81
COc1ccc(-c2cc3ccccc3oc2=O)cc1NC(=O)c1cccnc1	i	0.86	98	-1.4	14	7	89
C=CCOc1ccc(C(=O)CC)cc1OC	i	1	103	-0.7	-2	-10	106
Cc1ccc(C(=O)CC2(O)C(=O)Nc3ccccc32)s1 (centres undefined)	i	0.88	103	-2.0	-5	-29	96
O=C1c2ccccc2NC2CCCCC12 (centres undefined)	i	1.1	100	-3.4	-11	-45	113

Of the compounds above, these have a thiophene ring, fused or not.
SMILES	HSV augment	HSV augment primary fold	RGS16-Gao HTS	GALR2 agonist	PKD1 kinase inh	INS promoter inh	INS promoter inh cell count
CS(=O)(=O)Nc1cccc(C2=NN(S(=O)(=O)c3ccccc3)C(c3cccs3)C2)c1 (centres undefined)	i	0.78	103	-0.5	14	·	·
Cc1ccc(C(=O)CC2(O)C(=O)Nc3ccccc32)s1 (centres undefined)	i	0.88	103	-2.0	-5	-29	96

Of the compounds above, these contain an aryl methoxy group.
SMILES	HSV augment	HSV augment primary fold	RGS16-Gao HTS	GALR2 agonist	PKD1 kinase inh	INS promoter inh	INS promoter inh cell count
CCOc1ccc(-c2nnc3sc(-c4ccccc4OC)nn23)cc1	·	·	·	-1.7	-3	-52	41
CCCCNC(=O)c1ccc(CS(=O)(=O)c2ccc(OC)cc2)o1	i	0.82	95	-3.8	9	·	·
COc1ccc2cc(CCNC(=O)c3ccc(Br)o3)c(=O)[nH]c2c1	i	0.72	107	-1.6	-15	·	·
COc1ccc(-c2cc3ccccc3oc2=O)cc1NC(=O)c1cccnc1	i	0.86	98	-1.4	14	7	89
C=CCOc1ccc(C(=O)CC)cc1OC	i	1	103	-0.7	-2	-10	106

Additional records follow:
SMILES	HSV augment	HSV augment primary fold	RGS16-Gao HTS	GALR2 agonist	PKD1 kinase inh	INS promoter inh	INS promoter inh cell count
O=C(Cn1c(-c2ccccc2)noc1=O)Nc1ccc(N2CCCCCC2)cc1	i	0.74	99	-4.7	2	-7	136
Cc1ccc(S(=O)(=O)NNC(=O)C(=O)NNc2ccccn2)cc1	i	1	98	-2.9	-4	23	95
Cc1cccc(C(=O)NC(=S)Nc2ccc(Cc3ccncc3)cc2)c1	i	0.85	100	-1.7	-9	-29	123
COc1ccc(NC(=O)Nc2cccnc2)cc1	i	0.96	105	·	-2	-8	148
Cc1ccc(C(CCNC(C)c2cccs2)c2ccco2)cc1 (centres undefined)	i	0.91	99	·	·	·	·
COc1ccc(/C=N/Nc2nncc3ccccc23)c(OC)c1	i	0.94	102	-0.4	3	-33	85
C#CCNc1cc(C)nc2ncnn12	·	·	134	13*	-9	·	·
O=C1CNC(=O)/C1=C\N1CCN(C(c2ccccc2)c2ccccc2)CC1	i	0.82	98	-0.7	1	·	·
CC1(C)C(c2ccccc2)=[N+]([O-])CN1O	i	1	100	-2.6	-3	·	·
Cc1ccc(C2Nc3ccccc3NC3=C2C(=O)OC(C)C3)cc1 (centres undefined)	i	0.96	28	0.0	-10	47	109
CCOC(=O)CCc1n[nH]c(=O)[nH]c1=O	i	1	101	1.0	4	-7	87
CC(=O)COc1ccc2c(C)c(C)c(=O)oc2c1	i	0.76	86	-1.9	-5	-27	46
COC(=O)C1=CN(CCOC23CC4CC(CC(C4)C2)C3)C=C(C(=O)OC)C1c1ccsc1	i	1.1	107	·	-4	0	192
CS(=O)(=O)n1nc(NCc2cccs2)nc1NCc1cccs1	i	0.93	100	·	11	7	102
COc1ccc(CCNC(=O)c2c(C)cc(=O)oc2C)cc1OC	i	0.9	99	-1.1	-4	0	110
Cc1ccc(N2C(=O)C(NC(=O)c3ccccc3)(C(F)(F)F)C3=C2CC(C)(C)CC3=O)cc1 (centres undefined)	i	1	112	-1.4	-1	33	118
CCN(CC)CC(=O)Nc1cccc(S(=O)(=O)N2CCCC2)c1	i	1	96	·	·	·	·
Cc1ccc(-n2cnc3ncnc(-c4ccccc4)c32)cc1	i	1	104	·	8	·	·
Cc1cccc(NC(=S)NCC(c2cccnc2)N2CCOCC2)c1C (centres undefined)	i	1.2	103	0.3	-5	·	·
O=C(Cn1cc2c(n1)CCCC2)NCCCN1CCN(Cc2ccccc2)CC1	i	0.88	109	-1.4	0	·	·
O=C(CCN1C(=O)c2cccc3cccc(c23)C1=O)NC1CCS(=O)(=O)C1 (centres undefined)	i	0.96	98	·	·	·	·
Cc1nc2cc(Nc3ccncc3)ccc2s1	i	0.93	104	·	-8	·	·
COC(=O)/C=C1/S/C(=N/NC(=O)c2ccc(Cl)cc2Cl)NC1=O	i	0.95	114	·	·	·	·
O=C(CN1CCOCC1)Nc1nc2cc([N+](=O)[O-])ccc2s1	i	1	94	0.4	8	15	154
O=C(O)Cn1cc(C(=S)N2CCOCC2)c2ccccc21	i	0.96	98	-3.5	1	-34	148
CC1(C)CC(N2CCCC2)=CC(=[N+]2CCCCC2)C1	i	0.87	103	·	-2	35	107
C#CCOCCOCCOCCNc1nc(N2CCN(C(=O)[C@H](CCC(=O)O)n3cc(C(N)Cc4ccc(O)cc4)nn3)CC2)nc(N2CCN(C(=O)[C@H](CCC(=O)O)n3cc(C(N)[C@H](C)CC)nn3)CC2)n1 (some centres undefined)	·	·	102	·	3	·	·
Cc1c(C(=O)NCCSc2ccc(Cl)cc2)cccc1[N+](=O)[O-]	i	0.88	94	-3.1	-10	45	133
S=C(NCc1cccs1)Nc1cccc2ccccc12	i	1	94	·	6	58	110
Cn1cnnc1SCC(=O)N1N=C(c2ccc(Cl)cc2)CC1c1ccco1 (centres undefined)	i	1	104	·	2	·	·
Cc1nc(NCc2ccco2)[nH]c(=O)c1CCC(C)C	i	0.81	108	-1.1	-6	11	65
CCOC(=O)c1c(C)[nH]c(C(=O)OCC(=O)Nc2cc(C)ccc2OC)c1C	·	·	96	-2.9	13	-12	85
CCOC(=O)CSCC(=O)Nc1c(C(=O)C2CC2)oc2ccccc12	i	0.81	54	2.5	-4	55	37
CN(CC(=O)N1CCN(c2ncccn2)CC1)S(=O)(=O)c1ccc(Cl)cc1	i	0.93	103	·	-2	27	134
O=C(COC(=O)C12CC3CC(CC(O)(C3)C1)C2)NCCc1ccc(Cl)cc1	i	0.92	93	·	-7	-144	102
COc1ccc(-c2csc3nc(-c4ccccc4F)oc(=O)c23)cc1OC	i	0.6	98	-0.3	-4	·	·
CCOC(=O)c1nc(C)n(-c2cc(OC)c(Cl)cc2Cl)n1	·	·	108	·	-2	14	139
O=C(Nn1cnc2ccccc2c1=O)c1ccc([N+](=O)[O-])cc1Cl	i	0.95	101	·	1	21	136
O=C(NCCCn1ccnc1)c1ccccc1NS(=O)(=O)c1ccc(F)c(F)c1	i	0.79	-51	-1.4	-8	17	100
Cc1ccc(C)c(NC(=S)NCCc2ccc(F)cc2)c1	i	1.1	96	-1.1	-3	-12	141
COCCOc1cc(NC(=O)CS(=O)(=O)CC(=O)N(C)C)c(Cl)cc1Cl	i	0.91	99	·	3	·	·
Cc1ccc(OCCN2CCN(c3ncnc4sc(C)c(C)c34)CC2)cc1	i	0.83	103	-0.3	-6	·	·
O=C(NC1CCCCC1)c1ccc(-n2cnnn2)cc1	i	1	95	·	·	·	·
C=CCNC(=O)C1CC2Cn3c(nc4cc5ccccc5cc43)C2N1C (centres undefined)	i	1	101	·	·	·	·
Cc1nn(CC(=O)NNC(=O)c2ccccc2F)c([N+](=O)[O-])c1Br	i	1.1	102	·	·	·	·
CCCCCC(=O)Nc1cccc(C2=NOC3(C2)C[C@H](C(N)=O)N(C(=O)COc2ccc(Cl)cc2)C3)c1 (some centres undefined)	i	0.69	99	·	·	·	·
O=C(COC(=O)CN1C(=O)C(=O)c2ccccc21)OCN1C(=O)c2ccccc2C1=O	i	0.88	106	-1.5	-4	16	113
Cc1ccc(C2=NOC3(CC(=O)N(c4ccccc4)C3=O)C2)cc1 (centres undefined)	i	0.98	100	·	·	·	·
CCOc1ccccc1NS(=O)(=O)c1ccc(Br)s1	i	0.77	87	-2.3	-4	-12	127
O=C(OCC(=O)N1CCN(C(=O)c2ccco2)CC1)c1cccc(S(=O)(=O)N2CCc3ccccc32)c1	i	1	108	·	-3	·	·
Cc1ccc(-c2ccnc3nc(Sc4ncc(C(F)(F)F)cc4Cl)nn23)cc1	i	1.1	98	-2.8	-1	·	·
Nc1nnc(CC(=O)N/N=C/c2ccc(-c3ccccc3)o2)s1	i	1.2	99	-0.2	8	·	·
O=C(Nc1ccc(Cl)cc1)N1CCN(Cc2ccc3c(c2)OCO3)CC1	i	0.93	101	·	·	·	·
CC(=O)N(Cc1ccc(F)cc1)C1=C(NCCc2ccccc2)C(=O)c2ccccc2C1=O	i	1	102	-1.1	-7	-16	34
COc1ccc(-c2cn3c(C)c(C(=O)N4CCN(c5ccc(F)cc5)CC4)sc3n2)cc1	·	·	96	-1.6	-5	·	·
O=C(CN1CCN(S(=O)(=O)c2ccccc2)CC1)Nc1ccc2c(c1)CCC2	i	0.82	123	-0.7	-3	-64	83
CCCNC(=O)NC(=O)COC(=O)CC(NC(N)=O)c1ccc(Cl)cc1 (centres undefined)	i	1	117	0.6	-12	-25	89
CC1(C)OC(=O)C(=CNc2ccccc2F)C(=O)O1	i	0.73	94	-1.9	-4	24	126
CCCNC(=O)OC[C@H]1O[C@H](CCO/N=C/[C@@H](NS(=O)(=O)c2ccc(C)cc2)[C@H](C)/C=C/CC(=O)OC)C=C[C@@H]1Oc1ccc(OC)cc1	·	·	99	-1.6	-4	-5	84
COc1ccc(-c2nn(-c3ccccc3)cc2/C=N/NC(=O)c2cccc(S(=O)(=O)Nc3ccccc3Cl)c2)cc1	i	0.98	76	-0.5	5	14	77

The list goes on:
SMILES	HSV augment	HSV augment primary fold	RGS16-Gao HTS	GALR2 agonist	PKD1 kinase inh	INS promoter inh	INS promoter inh cell count
O=C(CN1CCOCC1)Nc1scc(-c2ccccc2)c1C(=O)N1CCOCC1	i	1	99	-2.1	-14	-44	116
CC(=O)Nc1c(C(=O)NCc2ccccc2)nnn1Cc1ccccc1	i	0.88	103	0.5	-2	14	135
Cc1c(C(=O)OC2CCC(C)CC2)[nH]c2c1C(=O)CCC2 (centres undefined)	i	1.4	100	-1.1	-11	·	·
CNC(=S)Nc1ccc([N+](=O)[O-])c(C)c1	i	1	97	·	-5	·	·
COc1ccc(C2CC(=O)c3cnc(N4CCc5ccccc54)nc3C2)c(OC)c1 (centres undefined)	i	1.1	106	·	-4	17	83
